D2 agonist = agonists of human D2 dopamine receptor (beta-arrestin); AID 624465; DiscoveRx PathHunter D2 beta-arrestin, luminescence, 90 min; 100% = 57 uM dopamine signal; activation, % (no concentration beside the values); actives 0.084% (n = 360,000); in the data active = activation above about 40%; inconclusive = about 15% to 40%; inactive = below about 15%; note: compound concentration not given in the record; the text of the record calls up to 30% inactive
Target sequence (P14416 whole entry, looked up): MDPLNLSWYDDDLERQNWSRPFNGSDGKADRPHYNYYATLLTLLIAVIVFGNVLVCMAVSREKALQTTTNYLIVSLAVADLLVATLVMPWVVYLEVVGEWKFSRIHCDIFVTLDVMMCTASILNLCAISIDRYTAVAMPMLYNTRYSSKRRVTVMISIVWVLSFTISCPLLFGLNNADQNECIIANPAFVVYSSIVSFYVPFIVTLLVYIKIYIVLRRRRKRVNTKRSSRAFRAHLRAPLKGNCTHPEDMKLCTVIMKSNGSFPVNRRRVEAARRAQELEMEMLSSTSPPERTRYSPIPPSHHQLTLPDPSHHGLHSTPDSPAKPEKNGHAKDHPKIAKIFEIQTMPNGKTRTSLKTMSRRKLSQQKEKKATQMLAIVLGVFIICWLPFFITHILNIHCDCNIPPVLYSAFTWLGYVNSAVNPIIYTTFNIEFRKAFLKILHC
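Agonist mode: compounds alone added to overnight-plated D2 PathHunter cells for 90 min at 37 C, with 57 uM final dopamine (EC100) defining full response. Beta-arrestin recruitment detected by chemiluminescent reagent, read after 1 h at ambient temperature.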
gsp antagonist = antagonizes gsp, the McCune-Albright syndrome mutation; actives 0.4% (n = 340,000); Potency, µM (doses to about 76.9 µM), for the others: top-dose activity change, negative = inhibition, actives largely listed as inhibitors; gsp-mutant cells, cAMP HTRF, 30 min; control for the full effect not named in the record; active = falling curve of any shape with a large fitted effect; inconclusive = falling curve, mostly with a smaller effect; inactive = flat or rising curve; cell line not stated here;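 note: intracellular cAMP measured with PDE inhibitor Ro 20-1724 present during compound exposure; potency is the fitted concentration of half-maximal effect; % is set by controls: 0 for no effect and ±100 for the full control effect; nearly all actives have a fitted effect of over 65% in size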
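G418-selected cells were plated in DMEM/10% FBS for 16-24 h at 37C, then treated with compounds plus the PDE inhibitor […] (300 uM solution added) for 30 min at 37C. Intracellular cAMP was measured by HTRF after 30 min lysis at room temperature.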
gsp agonist = agonists of gsp mutant (McCune-Albright syndrome). gsp mutant cells, cAMP HTRF, 30 min; control for the full effect not named in the record. Potency, µM (highest dose often 76.9 µM), for the others: at the highest dose activation (cAMP increase), most hits filed as activators. actives 0.13% (n = 340,000). AID 624287; active = well fitted activation curve with a large enough effect; inconclusive = small, poorly fitted or top-dose-only effect, or another doubt; inactive = no such curve, though single readings can be large or run the other way; cell line not stated here;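 note: phosphodiesterase inhibitor Ro 20-1724 added with compounds to block cAMP breakdown; potency is the fitted concentration of half-maximal effect; nearly all actives have a fitted effect of over 60% in size; about a fifth of the inactives were tested at one dose only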
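Cells in DMEM/10% FBS with G418 were pretreated with compounds in DMSO plus […] (300 uM stock) for 30 min at 37C. cAMP was measured by HTRF (cAMP-d2 plus anti-cAMP antibody-K) after 30 min at room temperature.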
Sfp inh = inhibitors of Bacillus subtilis Sfp phosphopantetheinyl transferase; actives 3.5% (n = 310,000); Q9F4F7; Potency, µM, for inactives: max response, negative = inhibition, usual class: inhibitors; Biochemical Sfp PPTase activity, qHTS; active = well fitted inhibition curve with a large enough effect; inconclusive = small, poorly fitted or top-dose-only effect, or another doubt; inactive = no such curve, though single readings can be large or run the other way;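 note: the enzyme is Sfp with the accession as filed and its product quenches rhodamine fluorescence; potency is the fitted concentration of half-maximal effect; 0% = enzyme reaction without inhibitor and -100% = no enzyme wells; top concentration of the series not given in the record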
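Sfp 15 nM + cpd, 15 min RT; start w/ rhodamine-CoA 5 uM, BHQ-2-YbbR 12.5 uM (final); 50 mM Hepes pH 7.6, 10 mM MgCl2, 0.01% NP-40, 0.01% BSA; read 525/598 nm at 0 and 30 min.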
PINK1 modulator = modulators of PINK1 expression; PINK1 immunofluorescence, high-content cytometry, 24 h; Potency, µM (doses to about 76.6 µM), for the others: top-dose activation (PINK1 increase), usual class: activators; actives 0.2% (n = 410,000); AID 624263; active = well fitted activation curve with a large enough effect; inconclusive = small, poorly fitted or top-dose-only effect; inactive = flat fitted curve, though single readings scatter; cell line not stated here;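 note: potency is the fitted concentration of half-maximal effect; % of control where 0% means no effect; nearly all actives have a fitted effect of over 65% in size; a mitochondrial uncoupler was the plate control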
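PINK1 protein, normally rapidly degraded, was detected by immunofluorescence after 24 hour compound treatment of a stable cell line. Titration data (5 concentrations) came from laser-scanning cytometry, with CCCP-treated wells as controls.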
ClpP mod = qHTS Assay for Activators of ClpP. ATP-dependent Clp protease proteolytic subunit (Bacillus subtilis (strain 168)), P80244. purified B. subtilis ClpP, FRET peptide cleavage, 20 min. Potency, µM (titrated, usually from 57.5 µM), without a hit: at the top dose activity change, negative = active. actives 1.9% (n = 340,000); active = well fitted falling curve with a large enough effect; inconclusive = small, poorly fitted or top-dose-only effect; inactive = no such curve, though single readings can be large or run the other way; note: potency is the fitted concentration of half-maximal effect; the source files actives as falling curves though it sought activators and does not explain the sign; nearly all actives have a fitted effect of over 65% in size; many hits overshoot -100%
Target sequence (P80244 whole entry, looked up): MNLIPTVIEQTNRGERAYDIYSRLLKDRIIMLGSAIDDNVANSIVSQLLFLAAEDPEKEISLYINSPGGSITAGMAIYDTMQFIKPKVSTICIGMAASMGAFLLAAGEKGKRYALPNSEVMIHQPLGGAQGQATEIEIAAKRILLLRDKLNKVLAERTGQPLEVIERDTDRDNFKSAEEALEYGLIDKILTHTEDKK
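FRET quenching reversal measured ClpP activation: 10 microg/mL B. subtilis ClpP at pH 8 with the FRET-FV decapeptide, read at 430 nm after 320 nm excitation. The 20-min minus 0-min signal was scaled between DMSO/no-enzyme wells and ADEP (5.8 microM final).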
Menin-MLL FL inh = menin-MLL binding inhibition, fluorescein peptide; Fluorescence polarization, fluorescein-MLL peptide displacement from menin; FP activity change, % at 61.4 µM; 290,000 tested, under 10 active; AID 1766; inconclusive = falling polarisation curve, or a change in total fluorescence; inactive = total fluorescence flat and polarisation flat or rising; no compound was filed as active; the % refers to the polarisation; negative = inhibition;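 note: % of control where 0% means no effect; inhibitors lower the polarisation; unlabelled MLL peptide was the positive control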
Starred values were filed as active, the others as inactive; ? = inconclusive; . = not tested or not shown; & = joins results of further samples; [ ] = another dose, or the depositor's remark.

Values in the order: D2 agonist | gsp antagonist | gsp agonist | Sfp inh | PINK1 modulator | ClpP mod | Menin-MLL FL inh
> Cc1nc(SCC(=O)Nc2ccc3c(c2)OCCO3)c2oc3ccccc3c2n1
    -5.3 | 11% | -6% | -4% | 5.3%[38.3 µM] | 0.5% | -2.1
> COc1ccc(/C=C(/NC(=O)c2cccs2)C(=O)NCc2ccco2)cc1OC
    -4.1 | -1% | -11% | 5% | -0.6% | . | -6.5
> COc1ccc(Cc2nc3ccc(C(=O)N(C)Cc4nccn4C)cc3o2)cc1
    -0.7 | . | ? | . | 1.7% | 2.1% | .
> CC(=O)c1cccc(NC(=O)C2(C)Cc3c(-c4cccc(C(N)=O)c4)ccnc3O2)c1 (centres undefined)
    7.8 | . | . | . | 5.1% | -0.1% | .
> O=C(NC1CCCCC1)N1CCN(Cc2ccco2)CC1
    -0.8 | 12% | 7%[15.4 µM] | 9% | 3.3% | . | 2.4
> Cc1ccc2c(c1)C1CN(C)CCC1N2C(=S)NC(=O)c1ccc(Cl)cc1Cl (centres undefined)
    -7.7 | -5% | -15% | 13% | -0.5% | 3.9% | -1.7
> O=S(=O)(/N=C(\c1ccccc1F)N1CCCCC1)c1ccccc1
    -2.8 | 5% | -2% | 12% | 1.2% | -0.9% | 8.1
> C=C(C)COc1ccc(-c2ncncc2Oc2ccc(OC)cc2)c(O)c1
    6.7 | -2% | -52%[inhibitor] | 6% | -1.5% | -2.6% | 3.4
> COc1ccccc1C(=O)NNC(=O)c1ccccc1
    -0.3 | 7% | -17% | 8% | -0.4% | -2.4% | 1.9
> CN1CCN2c3ncccc3Cc3ccccc3C2C1 (centres undefined)
    -3.9 | -1% | . | 9%&1% | -1.2% | 0.5% | -0.7&-5.6
> COc1ccccc1CN=C1NC(=O)C(CC(=O)Nc2ccc(OC)c(OC)c2)S1 (centres undefined)
    -2.8 | 0% | 16% | 6% | 3.3%[38.3 µM] | 1.2% | -2.1
> COc1cc(CNCCCN2CCOCC2)cc(Br)c1OCc1ccc(Cl)cc1
    4.2 | 1% | 11% | -1% | -2.1% | -0.6% | -0.7
> O=C1CCC(N2C(=O)c3ccccc3C2=O)C(=O)N1 (centres undefined)
    -3.7 | 2% | . | 16%&11%&-3%&24%&-2% | 1.5% | -0.9% | 3.9&0.1&0.4&-0.6&0.3
> COc1cccc(CN2CCN(Cc3cccc(Br)c3)CC2)c1OC
    -3.8 | -2% | 21%[15.4 µM] | -28% | 4.8% | -1.1% | -4.4
> Cc1cc(C(=O)NNC(=O)c2cccc(S(=O)(=O)N3CCOCC3)c2)c2ccccc2n1
    -2.2 | 6% | ? | 25% | 2.4% | . | -2.7
> Cn1cnc([N+](=O)[O-])c1Sc1ccncn1
    -5.7 | . | 1% | . | 1.3% | 1.1% | .
> O=C(CCl)Nc1ccc2c(c1)OCO2
    5.7 | 2% | ? | 6% | 12% | . | -5.4
> CC1(C)SCC(C(=O)O)N1C=O (centres undefined)
    -3.5 | 2% | 8% | 11% | -0.2% | 1.2% | -0.5
> Cc1[nH]c(=O)[nH]c(=O)c1Cc1cccc2ccccc12
    -3.6 | 8% | -1%[15.4 µM] | 15% | 1.4% | . | -4.6
> COc1ccc(Oc2coc3cc(OC(=O)/C=C/c4ccccc4)ccc3c2=O)cc1
    -7.0 | 2% | 8% | 4% | 4.5% | 25µM* | 1.7
> CCOc1ccc2[nH]c3nc(SCC(=O)OC(C)C)nnc3c2c1
    -6.3 | 1% | -8% | 14% | 12% | 1.6% | 3.9
> CC(=O)NCC(=O)NC1(C(=O)NC2CCCC2)CCCCC1
    -1.3 | 12% | 6% | 17% | 0.1% | -0.1% | 1.0
> Cc1ccc(N2C(N)=C(C#N)C(c3cccs3)C3=C2CC(C)(C)CC3=O)cc1 (centres undefined)
    -0.1 | -12% | -8% | -25% | ? | -17% | ?
> COCC(C)NC(C(=O)Nc1ccc(C)c(Cl)c1)c1ccccc1 (centres undefined)
    13 | -5% | -1% | -4% | 0.0% | -0.2% | 2.0
> O=C(C1CC1)N1CCCN(C(=O)C2CC2)CC1
    -2.4 | 3% | -24% | 17% | 0.4% | -2.3% | 1.0
> CC(=O)Nc1nnc(S(=O)(=O)N2CCN(c3ccc([N+](=O)[O-])cc3Cl)CC2)s1
    0.9 | ? | ? | 11% | -0.4% | 0.6% | .
> COc1cccc(CNC(=O)C(=O)NCC(c2ccco2)N2CCOCC2)c1 (centres undefined)
    -1.5 | 9% | -4%[15.4 µM] | -4% | 0.4% | 0.8% | 1.2
> CCc1cccc(CC)c1NC(=O)COC(=O)/C(C#N)=C/c1ccc(OC)cc1
    -1.1 | -3% | 3% | -18% | 1.1% | 6.9% | 26
> Nc1ncnc(NCc2ccc(F)cc2)c1[N+](=O)[O-]
    -1.9 | . | 9%[15.4 µM] | 14% | 0.2% | . | -0.6
> CCOc1ccccc1CNC(=O)CCc1cn(C)c2ccccc12
    -5.9 | -6% | ? | -2% | -0.6%&1.0% | ? | 1.0

(further entries)
Values in the order: D2 agonist | gsp antagonist | gsp agonist | Sfp inh | PINK1 modulator | ClpP mod | Menin-MLL FL inh
> CC(C)CCNC(=O)c1onc(CSc2ccccc2)c1C(=O)NCCC(C)C
    -4.4 | -5% | 18% | . | 23% | -4.2% | .
> CCSc1nnc2c(n1)OC1(CCCC1)Nc1ccccc1-2
    -2.0 | 4% | ? | 2% | 1.6% | -0.9% | 7.5
> Cc1noc(C)c1S(=O)(=O)NCCc1ccc(S(N)(=O)=O)cc1
    -0.1 | -10% | -17% | 7% | -1.8% | 0.3% | 2.0
> COc1ccc(NC(=O)CN(C)S(=O)(=O)c2ccc3c(c2)NC(=O)CS3)cc1
    0.3 | 6% | ? | 8% | 1.8% | -1.8% | .
> Cc1c(NC(=O)/C(=C/c2cccs2)c2cccs2)c(=O)n(-c2ccccc2)n1C
    -0.6 | -24% | -45%[inhibitor] | -16% | -1.4% | 1.8% | 2.5
> O=C(CSC1=NC(=O)C(Cc2ccccc2)C(=O)N1)Nc1ncc(Br)cc1Br (centres undefined)
    1.5 | 7% | 34% | ? | 1.1% | . | -2.7
> CN(C)C(CNC(=O)c1cc(S(=O)(=O)N(C)c2ccc(F)cc2)ccc1Cl)c1ccco1 (centres undefined)
    -3.3 | 4% | -32%[inhibitor] | . | -0.8% | -2.2% | .
> CCOC(=O)c1cnc(-n2nc(C)cc2C)nc1N(C)C
    2.6 | 9% | ? | ? | 0.6% | -0.5% | 5.0
> CCn1cc([N+](=O)[O-])c(C(=O)N2N=C(c3ccc4ccccc4c3)CC2c2ccccc2O)n1 (centres undefined)
    -1.5 | ? | -28% | 6% | -1.7% | 0.6% | 0.5
> CCN(C(=O)c1cnc(N2CCN(c3ncccn3)CC2)c2ccccc12)c1cccc(Cl)c1
    -3.2 | ? | 4% | 40µM* | 0.0% | -4.1% | 4.0
> COc1cc(C(=O)NC23CC4CC(CC(C4)C2)C3)cc(OC)c1OC
    -5.8 | 7% | -30% | 6% | 1.2% | 1.0% | -3.3
> CC(C)NC(=O)c1ccc(COCC(F)(F)F)cc1
    -2.1 | 21% | 1% | 0% | -0.3% | 0.4% | -2.6
> CCc1ccccc1NC(=O)CCC(=O)OCC(=O)c1ccc(-c2ccccc2)cc1
    -7.1 | -4% | -2%[15.4 µM] | 4% | 2.5% | 1.5% | .
> O=[N+]([O-])c1cc(S(=O)(=O)Nc2ccc(Cl)cc2)ccc1N/N=C/c1ccncc1
    3.4 | -19% | -39%[inhibitor] | 17% | -2.0% | . | 0.1
> O=S(=O)(N/N=C/c1ccccc1OCc1ccc(Cl)cc1)c1ccccc1
    -6.7 | -10% | -2% | 22% | 12% | -2.1% | -0.2
> Cc1ccc(S(=O)(=O)N2CCN(C(=O)c3ccco3)CC2)cc1C
    0.1 | -10% | -8% | 2% | 2.8% | 1.2% | -4.7
> NC(Cc1ccc(O)c([N+](=O)[O-])c1)C(=O)O (centres undefined)
    -3.4 | 7% | -53%[inhibitor] | ? | 2.4% | -1.1% | -5.4
> COc1ccccc1N1CCN(C(c2cc3ccc(C)cc3[nH]c2=O)c2nnnn2C2CCCC2)CC1 (centres undefined)
    -2.2 | -8% | -5% | 40µM* | 10%[38.3 µM] | -20% | -0.4
> O=C(O)CC(Cc1ccccc1)C(=O)Nc1ccc([N+](=O)[O-])cc1 (centres undefined)
    -2.6 | 5% | ? | 12% | 1.5% | -2.7% | 0.7
> O=C1CC(Sc2ncccn2)C(=O)N1c1ccccc1C(F)(F)F (centres undefined)
    -4.8 | -6% | -13% | -29% | 0.7% | 1.1% | -0.2
> N#Cc1ccc(C2=CC(=O)C[C@H](c3ccc(F)cc3)C2)cc1
    1.1 | 0% | ? | . | 0.1% | -2.6% | .
> c1ccc(COc2cccc(-c3cc4nc(NCc5ccc6c(c5)OCO6)ccn4n3)c2)cc1
    2.5 | . | . | . | 0.6% | 4.4% | .
> Cc1ccc(-c2nnc(-c3ccc(Br)cc3)o2)o1
    -3.3 | 6% | -3% | 24% | 3.8%[38.3 µM] | 32µM* | 1.1
> CC(C)[C@H](NC(=O)N1CC(=O)Nc2ccccc21)C(=O)Nc1nccs1
    -3.1 | -17% | 9% | 3% | -1.2% | -3.8% | 0.5
> CCCCOC(=O)CCn1[nH]c(=O)c2ccccc2c1=O
    -2.1 | 4% | -6% | 14% | 4.4%[38.3 µM] | -6.4% | -0.4
> CCCC(=O)c1cc2c(cc1NC(=O)CC)OCCO2
    -1.8 | -3% | ? | 9% | 1.2% | -6.9% | 5.4
> Nc1nc(=O)n(C2CCCO2)cc1Br (centres undefined)
    -4.3 | -1% | ? | . | 3.9% | 0.7% | .
> CN1CCN(c2ccc(NC(=O)c3ccc(C#N)cc3F)cc2Cl)CC1
    -3.1 | 13% | -20% | 12% | -0.7% | . | -1.3
> O=S(=O)(c1ccc(F)cc1)N1CCN(CCOc2ccccc2)CC1
    3.6 | 3% | -2% | . | 3.0% | . | .
> COC(=O)c1cc(OC)c(OC)cc1NC(=O)c1ccc(C)cc1
    0.3 | -1% | -24% | 5% | 5.6% | -6.1% | 2.9
